Menin-MLL FL inh: menin-MLL binding inhibition, fluorescein peptide; Fluorescence polarization, fluorescein-MLL peptide displacement from menin; FP activity change, % at 61.4 µM; 290,000 tested, under 10 active; inconclusive = falling polarisation curve, or a change in total fluorescence; inactive = total fluorescence flat and polarisation flat or rising; no compound was filed as active; the % refers to the polarisation; negative = inhibition;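 also: % of control where 0% means no effect; inhibitors lower the polarisation; unlabelled MLL peptide was the positive control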
Sfp PPTase inh: inhibitors of Bacillus subtilis Sfp phosphopantetheinyl transferase. Potency, µM, without a hit: max response, negative = inhibition, hits mostly inhibitors. Q9F4F7. Biochemical Sfp PPTase activity, qHTS. actives 3.5% (n = 310,000); active = well fitted inhibition curve with a large enough effect; inconclusive = small, poorly fitted or top-dose-only effect, or another doubt; inactive = no such curve, though single readings can be large or run the other way;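 also: the enzyme is Sfp with the accession as filed and its product quenches rhodamine fluorescence; potency is read from the fitted curve at half-maximal effect; 0% = enzyme reaction without inhibitor and -100% = no enzyme wells; top concentration of the series not given in the record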
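Fluorescence-quenching assay: 15 nM Sfp-PPTase preincubated 15 min at room temperature with compound, then 5 uM rhodamine-CoA and 12.5 uM BHQ-2-labelled YbbR peptide added. Fluorescence (ex 525/em 598 nm) read at start and after 30 min; difference gives rate.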
TRPML1 blocker: blocks the human TRPML1 channel; Q9GZU1; TRPML1-inducible cells, Ca2+ dye fluorescence, FDSS; stronger effect = lower value; inhibition of EC80 agonist-evoked calcium signal; activity change, negative = inhibition, % (no concentration beside the values); actives 0.02% (n = 390,000); in the data active means activity change below about -50%; inconclusive means about -30% to -50%; inactive means above about -30%;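 also: stimulus is agonist 54-4 at its EC80 concentration; % is scaled to controls: 0 for no effect and ±100 for the full control effect; compound concentration not given in the record; the text of the record puts the active cut at -80%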
Target sequence (Q9GZU1 whole entry, looked up): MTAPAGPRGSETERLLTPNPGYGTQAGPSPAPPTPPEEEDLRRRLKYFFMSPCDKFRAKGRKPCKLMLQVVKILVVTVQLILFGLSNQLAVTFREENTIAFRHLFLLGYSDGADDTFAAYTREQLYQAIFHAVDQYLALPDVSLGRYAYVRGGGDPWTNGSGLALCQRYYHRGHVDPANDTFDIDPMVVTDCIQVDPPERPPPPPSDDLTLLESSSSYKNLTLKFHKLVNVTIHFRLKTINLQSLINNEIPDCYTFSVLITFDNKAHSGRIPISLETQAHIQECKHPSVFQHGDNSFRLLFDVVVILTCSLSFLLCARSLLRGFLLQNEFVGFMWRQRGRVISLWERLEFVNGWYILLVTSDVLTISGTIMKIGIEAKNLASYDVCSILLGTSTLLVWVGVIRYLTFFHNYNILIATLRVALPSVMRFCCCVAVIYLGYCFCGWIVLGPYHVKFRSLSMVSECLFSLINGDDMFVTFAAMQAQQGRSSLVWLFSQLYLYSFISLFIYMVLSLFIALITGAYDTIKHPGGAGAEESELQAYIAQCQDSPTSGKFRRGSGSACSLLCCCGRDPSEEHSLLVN
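TRPML1-DL cells, Tet-induced overnight (~16 h, 37 °C) at 1,500 cells/well, were loaded with Ca8 no-wash dye plus quencher for 45-90 min at room temperature. Compounds were pinned during FDSS kinetic reading; agonist 54-4 at EC80 (4 uM final) then added.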
ClpP mod: qHTS Assay for Activators of ClpP | actives 1.9% (n = 340,000) | Potency, µM (doses to about 57.5 µM), for the others: top-dose activity change, negative = active | ATP-dependent Clp protease proteolytic subunit (Bacillus subtilis (strain 168)), P80244 | purified B. subtilis ClpP, FRET peptide cleavage, 20 min; active = well fitted falling curve with a large enough effect; inconclusive = small, poorly fitted or top-dose-only effect; inactive = no such curve, though single readings can be large or run the other way; also: potency is read from the fitted curve at half-maximal effect; the source files actives as falling curves though it sought activators and does not explain the sign; nearly all actives have a fitted effect of over 65% in size; many hits overshoot -100%
Target sequence (P80244 whole entry, looked up): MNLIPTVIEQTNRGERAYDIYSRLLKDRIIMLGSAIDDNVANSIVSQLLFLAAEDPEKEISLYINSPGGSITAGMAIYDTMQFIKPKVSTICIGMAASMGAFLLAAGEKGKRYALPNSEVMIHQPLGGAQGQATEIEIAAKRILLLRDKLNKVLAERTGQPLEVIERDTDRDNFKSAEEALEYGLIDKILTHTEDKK
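FRET quenching reversal measured ClpP activation: 10 microg/mL B. subtilis ClpP at pH 8 with the FRET-FV decapeptide, read at 430 nm after 320 nm excitation. The 20-min minus 0-min signal was scaled between DMSO/no-enzyme wells and ADEP (5.8 microM final).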
gsp ag: agonists of gsp mutant (McCune-Albright syndrome) | gsp mutant cells, cAMP HTRF, 30 min; control for the full effect not named in the record | Potency, µM (highest dose often 76.9 µM), for the others: at the top dose activation (cAMP increase), most hits filed as activators | actives 0.13% (n = 340,000); active = well fitted activation curve with a large enough effect; inconclusive = small, poorly fitted or top-dose-only effect, or another doubt; inactive = no such curve, though single readings can be large or run the other way; cell line not stated here;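 also: phosphodiesterase inhibitor Ro 20-1724 added with compounds to block cAMP breakdown; potency is read from the fitted curve at half-maximal effect; nearly all actives have a fitted effect of over 60% in size; about a fifth of the inactives were tested at one dose only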
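Cells in DMEM/10% FBS with G418 were pretreated with compounds in DMSO plus […] (300 uM stock) for 30 min at 37C. cAMP was measured by HTRF (cAMP-d2 plus anti-cAMP antibody-K) after 30 min at room temperature.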
gsp antag: gsp mutant antagonism. AID 624288. actives 0.4% (n = 340,000). gsp-mutant cells, cAMP HTRF, 30 min; control for the full effect not named in the record. Potency, µM (top dose mostly 76.9 µM), for the others: at the highest dose activity change, negative = inhibition, most hits filed as inhibitors; active = falling curve of any shape with a large fitted effect; inconclusive = falling curve, mostly with a smaller effect; inactive = flat or rising curve; cell line not stated here;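 also: intracellular cAMP measured with PDE inhibitor Ro 20-1724 present during compound exposure; potency is read from the fitted curve at half-maximal effect; % is scaled to controls: 0 for no effect and ±100 for the full control effect; nearly all actives have a fitted effect of over 65% in size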
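Cells in G418 medium, seeded 16-24 h, 37C; buffer exchange to DPBS + 1 mM CaCl2, 0.5 mM MgCl2, 0.05% BSA; cpds in DMSO + […] (300 uM stock), 30 min 37C; HTRF cAMP detection.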
TRPV1 potentiator: enhances activation of the human vanilloid receptor TRPV1; Q8NER1; TRPV1-expressing cells, Fluo-8 calcium influx, capsaicin EC20 potentiation; host cell line not named in the record; control for the full effect not named in the record; potentiation, % at 8.33 µM; actives 0.02% (n = 320,000); active means potentiation above 80%; inconclusive means 30% to 80%; inactive means below 30%; also: 0% is about no effect
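Cells expressing TRPV1 were dye-loaded with Fluo-8 and read kinetically: 10 s baseline, 3 min after compound (agonist portion), then 2 min after EC20 capsaicin (allosteric enhancer portion). Calcium-bound dye fluorescence at 480/520 nm.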
The depositor's hits bear a star; ? = inconclusive; · = not tested or not shown; & = joins results of further samples; [ ] = remark or other dose.

SMILES	Menin-MLL FL inh	Sfp PPTase inh	TRPML1 blocker	ClpP mod	gsp ag	gsp antag	TRPV1 potentiator
COCCNCc1ccccc1	4.9	13%	10	2.4%	26%	7%	5
CCCNC(=O)NC(=O)COC(=O)/C=C/c1cc(Br)ccc1F	-0.2	-13%	-3	·	-15%[15.4 µM]	15%	11
COc1ccc(S(=O)(=O)NCc2ccc3c(c2)cc(C)n3C)cc1	-14	-9%	-6	-0.2%	?	0%	·
CNc1snc(C)c1C(=O)OC(C)C(=O)c1ccc(F)cc1 (stereo not given)	·	·	-6	-0.4%	21%	-15%	-15
CCNc1nc(SCCOc2ccccc2)nc(N(C)C)n1	3.3	13%	52	1.6%	-5%	-15%	2
COc1ccc(CNc2cc(C)ccc2C)c(OC)c1OC	0.0	6%	-17	0.6%	-12%	-7%	27
COc1ccc(CCN=C(N)NS(=O)(=O)c2ccc(C)c(C)c2)cc1OC	-2.8	0%	-4	0.6%	-15%	13%	6
CC(C)(C)OC(=O)N[C@@H](CC(=O)OCc1ccccc1)C(=O)O	0.6	22%	11	·	0%[15.4 µM]	10%	4
CCCn1c(=O)c2[nH]c(-c3ccc(S(=O)(=O)O)cc3)nc2n(CCC)c1=O	1.1	·	-4	3.9%	·	-2%	-13
CC(=O)N(CCC(c1ccccc1)c1ccco1)Cc1cccs1 (stereo not given)	-2.9	15%	6	0.6%	6%	-6%	24
CCOC(=O)Cn1c(=NC(=O)c2sc3ccccc3c2Cl)sc2cc(S(N)(=O)=O)ccc21	3.7	-24%	14	?	-17%	12%	14
O=C(Nc1ccc(Oc2cccnc2)nc1)c1ccc(C(F)(F)F)cc1	-5.7	5%	10	·	-7%	-4%	·
CCOC(=O)C(C)n1cnc2sc3c(c2c1=O)CCC3 (stereo not given)	-1.5	-8%	-2	-1.6%	1%	11%	25
Cc1ccc(C(=O)N/N=C/c2ccc(S(=O)(=O)O)o2)c(Cl)c1	10.0	-7%	-8	0.8%	30%	-17%	-25
COc1ccc(C(=O)NC2CC2)cc1OC1CCN(Cc2ccc(F)cc2F)CC1	0.6	7%	-5	-0.1%	4%	-9%	-22
CC1CC(C)CN(S(=O)(=O)c2ccc(NC(=O)[C@@H]3CCCN3C(=O)c3cccs3)cc2)C1 (stereo not given in full)	·	·	8	-0.3%	?	-12%	5
O=C(Nc1ccc2c(c1)OCO2)c1noc2c1CCCCC2	5.1	6%	32	1.1%	13%	-14%	-16
Cc1cc(=O)oc2c3c(cc(OCC(=O)NCCC(=O)N[C@@H](C)C(=O)O)c12)OC(C)(C)CC3	-10.0	2%	8	·	-8%[15.4 µM]	3%	14
Cc1ccc(O)c(N=Nc2nccs2)c1	·	·	-7	-1.1%	-32%	3%	6
O=C(Nc1ccccc1)N1CCCC(c2nc(-c3cccs3)no2)C1 (stereo not given)	2.9	8%	5	0.3%	1%	-13%	-7
Cc1cccc(N(CC(=O)NC(C)C)C(=O)CCC(=O)Nc2nccs2)c1	-2.7	8%	-5	2.6%	-3%	10%	-5
O=S(=O)(NCc1cccs1)c1ccccc1Cl	·	·	-16	0.5%	?	-6%	-8
O=C(NCc1ccc2c(c1)OCO2)C(C(=O)c1ccccc1)n1cc(Cl)ccc1=O (stereo not given)	-2.0	7%	4	-2.1%	-9%	6%	5
C=C(C)CN(CC)C(=O)CCc1nnc(CCCc2ccccc2)o1	0.0	5%	5	·	1%[15.4 µM]	-4%	-7
O=C(CSc1nc(Nc2ccccc2)nc(N2CCOCC2)n1)NC1CCCCC1	·	-2%	24	1.2%	-29%	2%	-22
CC1=C(C(=O)Nc2ccccc2C(F)(F)F)C(c2sccc2C)NC(=S)N1 (stereo not given)	0.1	1%	-10	·	21%[15.4 µM]	·	-13
Cc1ccc(S(=O)(=O)Nc2cc(=O)[nH]c(SCC(=O)Nc3ccccc3Cl)n2)cc1	-0.8	13%	14	0.8%	?	?	5
COc1ccc(CNS(=O)(=O)c2ccc(C)cc2)cc1	-0.2	5%	-13&2	1.1%	0%	6%	·
COc1ccc(-n2cc(CNC3CCC(O)CC3)c(-c3cccc(F)c3)n2)cc1 (stereo not given)	6.0	?	0	·	1%[15.4 µM]	5%	-6
COc1cc(NCc2ccccc2O)c2ncccc2c1	9.1	46%[activator]	-9	·	8%	-7%	?
O=C(C1=C[C@@H](c2csc3ccccc23)C[C@@H](OCc2ccc(CO)cc2)O1)N1CCOCC1	-5.1	-3%	-14	-0.8%	-1%	-11%	-11
COc1ccc(/C=N/NC(=O)c2cccc(OC(F)(F)C(F)F)c2)c(OC)c1OC	2.0	14%	-12	-1.5%	-3%[15.4 µM]	-3%	6
O=C(c1cccc(N2CCCC2=O)c1)N1CCOCC1	3.3	-2%	18	-1.1%	-12%	4%	-2
Cc1ccc(NC(=O)c2ccc(OC(=O)c3cc4ccccc4o3)cc2)cc1	1.5	4%	-8	-0.2%	-13%	1%	5
CC(C)(CO)NS(=O)(=O)c1ccc2c(c1)Cc1cc(S(=O)(=O)NC(C)(C)CO)ccc1-2	2.5	-1%	4	-0.3%	16%[15.4 µM]	-8%	?
Cc1ccc(Nc2nnc(SCC(=O)NC3CCCc4ccccc43)s2)cc1 (stereo not given)	0.2	3%	-10	-4.8%	6%[15.4 µM]	-29%	-6
CC(C)CC(=O)NCCc1ccncc1	-0.3	4%	-2	-0.6%	-42%[inhibitor]	2%	5
Cc1cc(C)n(CC(=O)NC2CCCN(Cc3ccc(Cl)cc3)C2)n1 (stereo not given)	·	7%	0	0.3%	?	-18%	-11
O=C(Nc1ccc(N2CCOCC2)cc1)c1nc2ccccc2s1	0.3	14%	12	·	-45%[inhibitor]	4%	5
Cc1ccc(NC(=O)Cn2nnc(C(=O)NCc3ccccc3)c2N)cc1C	0.5	-5%	9	-0.3%	0%	7%	?

Four successive compounds from above, for reference:
SMILES	Menin-MLL FL inh	Sfp PPTase inh	TRPML1 blocker	ClpP mod	gsp ag	gsp antag	TRPV1 potentiator
Cc1ccc(NC(=O)c2ccc(OC(=O)c3cc4ccccc4o3)cc2)cc1	1.5	4%	-8	-0.2%	-13%	1%	5
CC(C)(CO)NS(=O)(=O)c1ccc2c(c1)Cc1cc(S(=O)(=O)NC(C)(C)CO)ccc1-2	2.5	-1%	4	-0.3%	16%[15.4 µM]	-8%	?
Cc1ccc(Nc2nnc(SCC(=O)NC3CCCc4ccccc43)s2)cc1 (stereo not given)	0.2	3%	-10	-4.8%	6%[15.4 µM]	-29%	-6
CC(C)CC(=O)NCCc1ccncc1	-0.3	4%	-2	-0.6%	-42%[inhibitor]	2%	5

(further entries)
SMILES	Menin-MLL FL inh	Sfp PPTase inh	TRPML1 blocker	ClpP mod	gsp ag	gsp antag	TRPV1 potentiator
CC(=O)Nc1ccc(Nc2cc(-c3ccccc3)nc3ncnn23)cc1	2.6	-4%	3	0.9%	?	-14%	1
Cc1ccc(N(C)S(=O)(=O)c2cccc(C(=O)OCC(=O)N3CCCC(C)C3)c2)cc1 (stereo not given)	·	·	19	-1.1%	2%	?	-14
NC(=O)N/N=C\c1cccs1	0.0	6%	-2	-1.8%	?	12%	15
CC(C)NC(=O)COC(=O)c1ccc(Oc2ccccc2)cc1	0.2	4%	3	1.6%	-41%[inhibitor]	-4%	-19
O=C(/C=C/c1cccs1)c1ccc(NC(=O)c2cccc(Br)c2)cc1	6.7	-8%	-14	-3.9%	13%	-19%	11
Cc1ccc2nc(-c3ccc(NC(=O)CN4C(=O)c5ccccc5C4=O)cc3)sc2c1	-0.2	-5%	-5	?	1%	-13%	-14
Cc1ccc(C)c(N2CCN(S(=O)(=O)c3ccc4c(c3)C(C)(C)C(=O)N4C)CC2)c1	-2.7	1%	-17	-1.5%	-45%[inhibitor]	-12%	10
CC(C)OCC(O)CN1CCC(Cc2ccccc2)CC1 (stereo not given)	-2.4	6%	2	1.8%	6%	4%	8
COCCNc1nnc(SCC(=O)c2ccc3c(c2)OCO3)s1	7.6	?	-5	-2.3%	28%	-7%	6
Cc1ccc(C)c(N(C)S(=O)(=O)c2ccc3c(c2)oc(=O)n3C)c1	4.5	16%	14	-3.6%	?	-7%	-1
CC(=O)c1cccc(NC(=O)c2cc(-c3ccncc3)nc3ccccc23)c1	·	·	36	-9.7%	-8%	-9%	-2
CC(=CC(=O)c1ccccc1)c1ccccc1	·	·	30	·	0%	-14%	·
Cc1nnc(SCC(=O)Nc2nnc(SCc3cccc(Br)c3)s2)s1	0.8	15%	0	1.1%	-71%[inhibitor]	-29%	10
O=C1OC[C@@H]2CCCN2C(=O)[C@@H](CC(=O)N(CCO)Cc2ccccc2)C/C=C\CC[C@H]1Cc1ccc(F)cc1	·	·	-27	-0.2%	8%	-5%	·
COc1ccc(CNC(=O)c2cc(-c3cc(C)cc(C)c3O)n[nH]2)cc1	-0.2	-6%	9	-1.1%	0%	-18%	-2
Cc1cc(Cl)ccc1OCc1n[nH]c(=S)n1C1CCCCC1	-0.7	10%	-4	-2.2%	-2%	-6%	1
CC1CC(=O)C2=C(C1)OC(N)=C(C#N)C2c1coc2ccccc2c1=O (stereo not given)	9.5	-5%	4	1.0%	-1%	2%	20
CC1CCCCC12NC(=O)N(CC(=O)N1CCc3ccccc3C1)C2=O (stereo not given)	·	·	-13	-22%	-2%	7%	-4
CSCCC(NS(=O)(=O)/C=C/c1ccccc1)C(=O)N1CCC(C)CC1 (stereo not given)	0.8	6%	1	-0.9%	-16%	5%	-14
CC1CCN(S(=O)(=O)c2cccc(-c3csc(-c4cccnc4)n3)c2)CC1	0.0	-5%	32	-7.8%	?	-3%	3
Cc1ccc(S(=O)(=O)N2CC(O)CC2C(=O)OCc2nc3sc(C)c(C)c3c(=O)[nH]2)cc1 (stereo not given)	6.2	14%	45	-11%	?	19%	7
CCOC(=O)N1CCN(C(=O)c2n[nH]c(=O)c3ccccc23)CC1	6.9	14%	-6	?	-6%	9%	3

Compound activity: PubChem, National Center for Advancing Translational Sciences (NCATS)
